Source: PubChem BioAssay
PrP 5UTR inh: inhibition of PrP 5' UTR reporter expression; cell-based PrP 5' UTR mRNA reporter, plate reader; inhibition, % (test concentration not listed); hit rate 0.35% among 340,000;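 active = every replicate at 50% or more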;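 note: 0 = median of the neutral control wells; tested in H4 reporter cells; numbers are from one replicate; inactives centre near -14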
Mtb hypoxia rep: Mtb hypoxia fluorescent reporter inhibition; M. tuberculosis hypoxia-regulated fluorescent reporter, fluorescence; fluorescence inhibition, % (no concentration beside the values); hit rate 0.1% among 300,000; AID 1159583;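 active = 35 to 45% if threefold the growth effect, above 45% if 1.5-fold the growth effect; inactive = the rest, general growth blockers included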;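 note: wells of about 50 µL received 100 nL stock; 0% = vehicle wells and 100% = reference inhibitor wells; whole bacteria with a GFP reporter of the hypoxia response; strong numbers were not always called active; many hits fall short of the cut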
Bead autofluor: counter-screen for toxin protease inhibitors: compound fluorescence; AID 624483; fluorescence intensity (no concentration beside the values); hit rate 3.1% among 360,000; compound autofluorescence counterscreen, microsphere flow cytometry; active compounds read high;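 active = at least 3 SD above the mean of all compounds, about 16000 in these data; inconclusive = too few beads counted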;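 note: 100 nL of 1 mM stock went into each well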
BJeLR lethal: BJeLR cell viability loss. BJeLR (HRASV12) viability, CellTiter-Glo ATP luminescence, 48 h; reference of the scale not given here. inhibition, % (concentration not given with the values). hit rate 0.17% among 300,000;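 active = replicate mean above 50%; inconclusive = above 50% but judged a plate artefact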;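 note: 50 nL library stock added to about 25 µL; numbers are from one replicate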
RN4220 kill: kills Staphylococcus aureus RN4220; S. aureus RN4220 growth, OD600, 16 h; inhibition, % (test concentration not listed); hit rate 0.33% among 330,000; AID 1259311;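 active = z-score of -3 or lower and OD600 up to 0.18 on both plates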;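 note: plate controls were untreated cells for no effect and reference antibiotic for full effect; stock transfer was 100 nL into about 80 µL; one replicate is shown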
Sa ugtP lethal: kills S. aureus RN4220 lacking UgtP | hit rate 0.54% among 330,000 | AID 1259309 | growth inhibition, % (test concentration not listed) | S. aureus RN4220 ugtP deletion, OD600 growth, 16 h; some inactives read as strong as hits;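 active = z-score under -3 and OD600 up to 0.15 on both plates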;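 note: plate controls were untreated wells for no effect and antibiotic for full effect; wells of about 80 µL received 100 nL stock; the first replicate is given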
Mtb hypoxia rep growth: further read-out of Mtb hypoxia rep, marked with its call; growth inhibition, %; measured here: M. tuberculosis growth (absorbance);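 0% = vehicle and 100% = reference antibiotic; read after six days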
* hit, by the source's call; ? = inconclusive; . = not tested or not shown. Compounds as they come; about 4% have a hit in one of these screens.

compound	PrP 5UTR inh	Mtb hypoxia rep	Mtb hypoxia rep growth	Bead autofluor	BJeLR lethal	RN4220 kill	Sa ugtP lethal
COc1ccc(S(=O)(=O)N2CCc3ccccc32)cc1C(=O)NCCc1ccc(S(N)(=O)=O)cc1	-3.0	5.9	-4.9	3761	.	0.7	1.6
Cc1sc2nc(CSc3nnc(Cc4cccs4)n3C3CCCCC3)[nH]c(=O)c2c1C	-16.2	.	.	2596	-3.4	1.3	0.4
COc1ccc(/C=C2\N=C(C)OC2=O)cc1[N+](=O)[O-]	-29.6	3.5	-1.0	5414	-1.7	0.6	-1.5
C=CCn1c(SCC(=O)N2CCOCC2)nc(O)c(Cc2ccccc2)c1=O	-10.7	2.2	-5.9	3378	11.4	9.8	-2.2
Cc1c(C(=O)NCC(C)(C)N2CCOCC2)oc2ccccc12	-23.3	-0.9	-1.3	5855	.	-0.9	-1.4
Cc1ccccc1S(=O)(=O)Cc1ccc(C(=O)NCc2cccs2)o1	-10.6	8.2	15.3	3989	-13.7	1.4	-1.8
COC(=O)C(N)CCCN=C(N)N[N+](=O)[O-] (stereo not drawn)	.	0.8	-3.9	.	.	4.3	0.9
COc1ccc(C2Nc3ccccc3C(=O)N2NC(=O)c2ccccc2)cc1OC (stereo not drawn)	-27.5	5.9	7.7	3285	-2.1	1.1	4.2
COc1ccc(NC(=O)C2CCN(S(C)(=O)=O)CC2)cc1	-12.1	10.0	6.0	4236	1.7	4.3	2.9
COc1ccc(/C=N/NS(=O)(=O)c2ccccc2)cc1OS(=O)(=O)c1ccccc1	-3.3	.	.	3475	5.1	.	.

By substructure, those above with an aryl thioether with sulfur outside any ring (two)
compound	PrP 5UTR inh	Mtb hypoxia rep	Mtb hypoxia rep growth	Bead autofluor	BJeLR lethal	RN4220 kill	Sa ugtP lethal
Cc1sc2nc(CSc3nnc(Cc4cccs4)n3C3CCCCC3)[nH]c(=O)c2c1C	-16.2	.	.	2596	-3.4	1.3	0.4
C=CCn1c(SCC(=O)N2CCOCC2)nc(O)c(Cc2ccccc2)c1=O	-10.7	2.2	-5.9	3378	11.4	9.8	-2.2

The list goes on.
compound	PrP 5UTR inh	Mtb hypoxia rep	Mtb hypoxia rep growth	Bead autofluor	BJeLR lethal	RN4220 kill	Sa ugtP lethal
O=C(/C=C/c1c(Cl)cccc1Cl)Nc1ccncc1	-47.0	-2.7	-6.0	20186*	5.7	-1.5	-19.8
CC(C)Cc1csc(=S)[nH]1	-7.0	19.9	7.0	4353	.	4.4	4.7
CC(C)CC1Nc2ncnc(N3CCN(c4ccccc4)CC3)c2N(Cc2ccc(Cl)cc2)C1=O (stereo not drawn)	-30.5	5.3	9.1	3491	3.3	-1.6	3.8
Clc1ccc(COc2ccccc2CNCc2cccnc2)cc1	-20.0	14.8	-4.9	10505	8.4	6.2	9.2
CCOC(=O)c1c(NC(C)=O)sc(/C(C)=N/Nc2ccc(C(=O)O)cc2)c1C	-9.5	.	.	3616	6.3	.	.
Cc1ccc(-n2nnnc2-c2cccnc2)cc1	-5.0	7.5	2.1	4243	-8.9	5.8	-1.0
CN1CCN(C(CNS(=O)(=O)c2ccc(Br)cc2)c2ccc3c(c2)OCO3)CC1 (stereo not drawn)	-8.3	-4.6	-4.4	?	0.2	1.5	1.2
COc1ccc(C(=O)Nc2ccc3ccccc3c2)cc1OC	-58.7	5.8	2.7	3846	3.7	2.9	3.8
O=C(Nc1nc2c(s1)CCCC2)c1ccc(N2C(=O)CCC2=O)cc1	-20.5	8.0	8.4	6366	3.3	1.3	-4.9
CC(=O)c1cccc(NC(=O)C2CCN(S(=O)(=O)c3ccccc3)CC2)c1	-4.4	1.2	11.6	10990	-5.4	5.8	2.8

compound	PrP 5UTR inh	Mtb hypoxia rep	Mtb hypoxia rep growth	Bead autofluor	BJeLR lethal	RN4220 kill	Sa ugtP lethal
NC(=O)c1ccsc1NC(=O)COC(=O)c1ccncc1	0.6	9.0	6.4	4934	.	3.9	2.9
CN=C(Nc1cccc(Cl)c1)SC1CC(=O)N(c2ccc(OC)cc2)C1=O (stereo not drawn)	-18.9	-2.5	-8.9	4679	-0.8	-1.5	-4.9
CSc1ccc(CN(C)CC(=O)N(C)CC(=O)Nc2ccccc2Br)cc1	-10.3	-2.6	0.7	6794	.	0.4	3.2
COc1ccc(C2N=C(N)N=C(N)N2c2ccccc2OC)cc1OC (stereo not drawn)	-16.5	6.9	16.7	4020	-28.1	0.8	-0.4
C=C(C)n1c(=O)n(Cc2ccc(C)cc2)c2ccccc21	-17.3	13.8	0.2	3902	-4.4	3.0	1.6
COc1ccc(S(=O)(=O)CCC(=O)NCCc2ccc(C)cc2)cc1	-22.2	3.8	2.3	16185*	5.9	2.5	11.8
Cc1ccc(OC(C)C(=O)N2CCCc3ccccc32)cc1 (stereo not drawn)	-21.7	15.3	6.8	17127*	-8.0	3.0	10.9
Cc1ccc(C2(C)NC(=O)N(CC(=O)N3CCN(S(=O)(=O)c4ccccc4[N+](=O)[O-])CC3)C2=O)cc1 (stereo not drawn)	0.3	-4.8	9.5	4193	.	0.9	1.5
Cc1cccc(N(CC(=O)NCc2ccco2)C(=O)CCC(=O)Nc2ccccn2)c1C	-11.0	1.3	-6.3	3662	0.1	2.6	4.0
Cc1ccc(SCc2ccc(C(=O)N3CCCCC3)cc2)cc1	0.0	-1.6	-4.6	3104	-1.2	5.4	-16.1

compound	PrP 5UTR inh	Mtb hypoxia rep	Mtb hypoxia rep growth	Bead autofluor	BJeLR lethal	RN4220 kill	Sa ugtP lethal
O=C1Nc2ccccc2/C1=C/c1ccccc1F	-26.6	3.6	4.2	3986	-8.4	11.5	12.3
CC(=O)Nc1ccc(-c2cc(NC(C)=O)n(-c3ccccc3)n2)cc1	-3.2	.	.	5314	-5.3	1.2	2.4
COC(=O)c1ccc(CNC(=O)C2CCC(=O)N(Cc3cccc(F)c3)C2)cc1 (stereo not drawn)	-26.1	-1.6	-3.1	6577	-7.3	-8.1	7.4
CC(C)=NOc1cc(NC(=O)CCl)cc([N+](=O)[O-])c1	-18.8	12.1	6.7	2307	1.0	4.6	3.3
CCOC(=O)/C(C(=O)Nc1ccc(Cl)cc1Cl)=C1/NC(C)(C)Cc2ccccc21	.	0.2	-2.6	.	-1.7	-2.8	10.3
CC(O)c1cccc(NC(=O)Nc2cccc(NC(=O)Nc3cccc(C(C)O)c3)c2)c1 (stereo not drawn)	-11.4	-5.7	5.1	3562	1.2	-1.1	-3.9
COc1ccc2c(c1)c1nc3n(c(=O)c1n2CC(=O)Nc1ccccc1)CCS3	-18.7	9.6	-5.1	4431	-1.8	-0.8	4.5
O=C(NCCc1cccc(C(F)(F)F)c1)C1CCC(=O)N(CCc2cccc(F)c2)C1 (stereo not drawn)	-26.2	6.8	7.1	5020	13.6	1.6	-0.4
CCCN(CCC)C(=O)C1CCCN1S(=O)(=O)c1cccc2nsnc12 (stereo not drawn)	-20.7	5.4	12.6	5004	2.4	1.0	4.1
CCOC(=O)CN1C(=O)N[C@@H](CCc2ccccc2)C(C(=O)OC)=C1C	-2.5	.	.	3861	-13.2	.	.

compound	PrP 5UTR inh	Mtb hypoxia rep	Mtb hypoxia rep growth	Bead autofluor	BJeLR lethal	RN4220 kill	Sa ugtP lethal
COc1ccc(CNCCC2(O)CC(C)N(C)CC2C)cc1OC (stereo not drawn)	4.6	.	.	3229	0.4	.	.
Nc1c(C(=O)NCc2ccccc2)sc2nc3c(cc12)C(=O)CCC3	-35.1	.	.	3142	-0.9	1.1	3.8
Cc1cccc(NC(=O)c2cccc(NC(=O)c3ccccc3)c2)n1	-12.0	0.0	8.0	4139	-2.2	5.4	-1.8
O=C(COc1ccc(S(=O)(=O)NC2CCCCC2)cc1)NC1CCCC1	-32.7	18.3	13.3	4144	6.5	10.8	10.5
O=C(COC(=O)c1ccc2c(c1)OCCO2)NCc1ccccc1	-33.6	7.8	1.4	2881	1.0	-8.3	-5.4
COC(C[C@@H](O)C[C@H](O)COCc1ccccc1)OC	-13.1	.	.	3551	-8.4	.	.
O=C(NCc1ccc2c(c1)OCO2)C1CCN(S(=O)(=O)N2CCOCC2)CC1	-23.3	1.0	4.3	2251	-2.2	-2.9	-8.9
Cc1ccc(S(=O)(=O)N2CCN(C(=O)CN3CCCCC3)C2C(C)C)cc1 (stereo not drawn)	-32.4	1.9	5.9	10165	6.3	0.7	-6.3
Cc1nc2c(-c3ccc(F)cc3)c(C)nn2c(C)c1CCC(=O)N1CCC(Cc2ccccc2)CC1	-34.1	7.5	4.7	4517	11.4	-2.6	6.5
Cc1nn(-c2ccccc2)c(Cl)c1/C=N/NC(=O)c1nn(C)cc1[N+](=O)[O-]	-30.3	.	.	6149	5.6	.	.

compound	PrP 5UTR inh	Mtb hypoxia rep	Mtb hypoxia rep growth	Bead autofluor	BJeLR lethal	RN4220 kill	Sa ugtP lethal
CC(=O)N1CCC(N(CCCOC(C)C)C(=O)Nc2ccc(Cl)cc2)CC1	-17.7	-1.6	0.3	4174	-10.4	4.4	15.2
CCN(CC)S(=O)(=O)c1ccc(N2CCOCC2)c(NC(=O)C2CSC3(C)CCC(=O)N23)c1 (stereo not drawn)	10.6	-4.8	-5.6	4278	-3.2	2.7	-1.6
CCC1=C(OC(=O)N(CC)CC)N2C(=O)OC(=NCC3CC3)[C@]2(C)[C@H]2C1=CC[C@H]1C(=O)NC(=O)[C@H]12	-8.8	.	.	2987	-7.3	.	.
Cc1ccc(S(=O)(=O)N2CCN(CC(=O)N/N=C\c3cccnc3)CC2)cc1	-10.8	.	.	2474	10.7	.	.
COc1ccc(NC(=S)Nc2ccc(F)cc2)cc1	-9.9	1.6	8.0	3912	7.9	3.4	1.1
CCCc1c(C(=O)N/N=C/c2cccc(OCc3ccc(F)cc3)c2)nnn1-c1nonc1N	-27.8	.	.	5603	-4.6	.	.
Cc1ccc(NC(=O)C2CCN(S(C)(=O)=O)CC2)c(C)c1	-13.9	10.1	5.1	3903	6.3	-0.5	6.3
Cc1cc(C)n(C(=O)c2ccc(C)c(S(=O)(=O)N3CCCC3)c2)n1	-19.4	6.1	0.5	2954	2.2	-6.4	-0.8
Cc1[nH]n(-c2ccccc2)c(=O)c1N=Nc1ccc(C(N)=O)cc1	-24.6	15.7	5.6	3633	1.2	2.1	10.6
COC(=O)CSc1nnc(CCc2nc3ccccc3[nH]2)n1C	-17.9	-11.4	-2.0	10061	-0.2	0.6	3.2

compound	PrP 5UTR inh	Mtb hypoxia rep	Mtb hypoxia rep growth	Bead autofluor	BJeLR lethal	RN4220 kill	Sa ugtP lethal
CCOc1ccc(-c2[nH]ncc2-c2csc(C)n2)c(O)c1	-14.3	0.3	8.3	2173	2.0	1.7	2.7
CC(C)OCCCNC(=O)COCC(=O)Nc1ccc(OCCc2ccccc2)cc1	-16.8	14.3	11.8	3327	3.1	4.2	12.3
Cc1ccsc1C(=O)OCC(=O)NC1CCCC(C)C1C (stereo not drawn)	-14.1	8.8	4.3	3605	.	3.7	4.4
COc1ccc(C2/C(=C(/O)c3ccc4c(c3)CC(C)O4)C(=O)C(=O)N2Cc2cccnc2)cc1 (stereo not drawn)	2.5	-2.0	2.4	5255	-6.5	4.3	11.2
CCc1ccc(NC(=S)N2CCN(c3cccc(OC)c3)CC2)cc1	-20.1	13.1	19.7	4043	14.9	5.8	8.6
N#Cc1ccc(NC(=O)NN2CCCCCC2)cc1	-34.0	3.5	2.4	4103	.	3.4	-13.2
CC1=NN(C(N)=S)C(=O)C1N=Nc1cccc(Cl)c1 (stereo not drawn)	-26.2	2.5	3.7	4031	-6.3	13.6	12.9
